Compound activity deposited in PubChem BioAssay by several laboratories.
RN4220 kill: S. aureus RN4220 growth inhibition; AID 1259311; OD600, 16 h; inhibition, % (test concentration not listed); 0.33% of 330,000 active;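 active = z-score of -3 or lower and OD600 up to 0.18 on both plates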;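 also: plate controls were untreated cells for no effect and reference antibiotic for full effect; stock transfer was 100 nL into about 80 µL; one replicate is shown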
Bead autofluor: counter-screen for toxin protease inhibitors: compound fluorescence | 3.1% of 360,000 active | compound autofluorescence counterscreen, microsphere flow cytometry; stronger effect = higher value | AID 624483 | fluorescence intensity (concentration not given with the values);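 active = at least 3 SD above the mean of all compounds, about 16000 in these data; inconclusive = too few beads counted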;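 also: 100 nL of 1 mM stock went into each well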
ugtP null kill: kills S. aureus RN4220 lacking UgtP. S. aureus RN4220 ugtP deletion, OD600 growth, 16 h; some inactives read as strong as hits. growth inhibition, % (concentration not given with the values). 0.54% of 330,000 active. AID 1259309;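 active = z-score under -3 and OD600 up to 0.15 on both plates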;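 also: plate controls were untreated wells for no effect and antibiotic for full effect; wells of about 80 µL received 100 nL stock; the first replicate is given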
BJeLR lethal: BJeLR cell viability loss; BJeLR (HRASV12) viability, CellTiter-Glo ATP luminescence, 48 h; reference of the scale not given here; 0.17% of 300,000 active; inhibition, % (test concentration not listed);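 active = replicate mean above 50%; inconclusive = above 50% but judged a plate artefact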;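 also: 50 nL library stock added to about 25 µL; numbers are from one replicate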
PrP UTR inh: suppresses PrP 5' UTR mRNA reporter expression; cell-based PrP 5' UTR mRNA reporter, plate reader; inhibition, % (no concentration beside the values); 0.35% of 340,000 active;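 active = every replicate at 50% or more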;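 also: 0 = median of the neutral control wells; tested in H4 reporter cells; numbers are from one replicate; inactives centre near -14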
Mtb hypoxia rep: Mtb hypoxia fluorescent reporter inhibition. 0.1% of 300,000 active. AID 1159583. fluorescence inhibition, % (concentration not given with the values). M. tuberculosis hypoxia-regulated fluorescent reporter, fluorescence;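 active = 35 to 45% if threefold the growth effect, above 45% if 1.5-fold the growth effect; inactive = the rest, general growth blockers included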;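 also: wells of about 50 µL received 100 nL stock; 0% = vehicle wells and 100% = reference inhibitor wells; whole bacteria with a GFP reporter of the hypoxia response; strong numbers were not always called active; many hits fall short of the cut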
Mtb hypoxia rep growth: recorded beside Mtb hypoxia rep, whose call it bears; growth inhibition, %; measured here: M. tuberculosis growth (absorbance);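 0% = vehicle and 100% = reference antibiotic; read after six days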
* marks the source's active call; other numbers are inactive results; ? = inconclusive; / = no result given.

Second line of a record – Mtb hypoxia rep	Bead autofluor	ugtP null kill	RN4220 kill	BJeLR lethal	PrP UTR inh	Mtb hypoxia rep growth
- C/C(=N\NC(=O)c1c(Cl)cnn1C)c1cccnc1
  /	?	/	/	-5	-12	/
- Cc1cc(C)c(NC(=O)COC(=O)C2CCCCC2)c(C)c1
  3	8765	5	0.5	/	-32	0
- COc1ccc(CC(C)=NNC(=O)c2cc(C)oc2C)cc1
  4	/	4	2.3	/	/	1
- CCOC(=O)N1CC=C2C(C#N)=C(N)C(C#N)(C#N)[C@H](c3ccccc3OCC)[C@H]2C1
  -6	10840	-12	0.7	1	7	7
- COC(=O)C(C(=O)OC)c1ccc(-n2cccc2)cc1
  9	3219	-70	14	-7	-9	1
- O=C(COc1cccc2cccnc12)NN=C1SCC(=O)N1Cc1ccccc1
  6	/	1	-3.3	/	/	5
- S=C(NCc1ccco1)Nc1cc(-c2ccccc2)[nH]n1
  -5	4685	7	6.7	3	62*	-5
- CCCc1nc2ccc(NC(C)=O)cc2c(=O)n1Cc1cccc(Cl)c1
  -12	/	-2	-0.5	3	-19	-8
- Cc1ccccc1C(=O)N1CCC(C(=O)O)CC1
  7	10426	-5	0.3	-9	-38	5
- Cc1nc2cc(-c3cccc(F)c3)nn2c(N2CCN(C(=O)c3ccco3)CC2)c1C
  /	3223	/	/	0	-41	/
- NS(=O)(=O)c1ccc(CCNC(=S)Nc2ccc(S(N)(=O)=O)cc2)cc1
  6	2495	0	5.5	-1	-9	8
- Cc1cccc(C(=O)NCCNC(=O)c2ccco2)c1
  -5	3675	1	-3.3	6	0	-17
- COc1ccc(Br)cc1/C=N/NC(=O)CNC(=O)C1COc2ccccc2O1 (stereo not given)
  /	5317	/	/	-1	-3	/
- CSc1ccc(CN2C(=O)NC3(CCCCCCC3)C2=O)cc1
  -2	4270	3	5.9	2	6	-8
- CO/N=C/NC(=O)c1c(OC)ccnc1Oc1ccc(F)cc1
  8	7534	14	5.7	20	-46	-5

Whole records, looked up by structure. Order of screens: Mtb hypoxia rep	Bead autofluor	ugtP null kill	RN4220 kill	BJeLR lethal	PrP UTR inh	Mtb hypoxia rep growth
Record of `CSc1ccc(CN2C(=O)NC3(CCCCCCC3)C2=O)cc1` : -2	4270	3	5.9	2	6	-8
Record of `Cc1cccc(C(=O)NCCNC(=O)c2ccco2)c1` : -5	3675	1	-3.3	6	0	-17
Record of `Cc1nc2cc(-c3cccc(F)c3)nn2c(N2CCN(C(=O)c3ccco3)CC2)c1C` : /	3223	/	/	0	-41	/
Record of `COC(=O)C(C(=O)OC)c1ccc(-n2cccc2)cc1` : 9	3219	-70	14	-7	-9	1
Record of `CCCc1nc2ccc(NC(C)=O)cc2c(=O)n1Cc1cccc(Cl)c1` : -12	/	-2	-0.5	3	-19	-8

(next part)
Second line of a record – Mtb hypoxia rep	Bead autofluor	ugtP null kill	RN4220 kill	BJeLR lethal	PrP UTR inh	Mtb hypoxia rep growth
- CC(C)Oc1cccc(C(=O)C2CCCN(Cc3cnc(N4CCOCC4)s3)C2)c1 (stereo not given)
  1	3834	10	-0.4	8	-29	2
- CC1(C)CC(=O)C2=C(C1)Nc1[nH]n(-c3ccccc3)c(=O)c1C2c1ccc2c(c1)OCO2 (stereo not given)
  7	9621	8	7.9	1	-19	14
- O=C(CN1C(=O)/C(=C\c2ccc(C(F)(F)F)cc2)Sc2ccccc21)NCc1ccco1
  /	1902	/	/	4	-6	/
- Cc1ccc(Nc2nc(C)cs2)cc1
  5	2823	-3	3.2	2	-145	-2
- CCOC(=O)c1ccc(Cn2cnc3ccccc3c2=O)cc1
  6	4120	5	2.1	-2	-21	17
- O=C(O)c1cccc(N/N=C/c2sc(N3CCOCC3)nc2-c2ccccc2)c1
  /	2151	/	/	8	2	/
- CCOc1ccc(NC(=O)COc2ccc(C(=O)NCCc3ccccc3)cc2)cc1
  -3	9791	11	4.0	1	-25	2
- CCCC1(C(=O)OCC)NC(c2ccc(OC)cc2OC)C2C(=O)N(c3ccc4c(c3)OCCO4)C(=O)C21 (stereo not given)
  /	2153	6	1.3	-1	-5	/
- Cn1ccnc1SC(=O)N1c2ccccc2Sc2ccccc21
  -3	10269	3	8.7	3	-24	-3
- O=[N+]([O-])c1ccc(N2CCCC(C(F)(F)F)C2)c2ccncc12 (stereo not given)
  7	3749	-1	-0.6	1	4	14
- CCCCn1c(SCC(=O)N2CCC(C(=O)OCC)CC2)nc2cc(S(N)(=O)=O)ccc21
  5	2822	1	4.0	-3	-6	6
- c1ccc(CN2CCC(CNc3ncnc4ccccc34)C2)cc1 (stereo not given)
  12	4361	-13	-0.2	/	-12	8
- COc1cccc(C2C([N+](=O)[O-])=C(N)Oc3cc(C)oc(=O)c32)c1 (stereo not given)
  -1	3809	3	3.4	11	-23	-2
- C[C@@H]1CC=C[C@H]2[C@H]1C(=O)N(Cc1ccccc1)[C@H]2c1ccc2ccccc2c1Br
  /	3494	/	/	5	4	/
- COCc1cc(C)nc(NC2CC(C)(C)NC(C)(C)C2)c1C#N
  7	3929	4	1.6	1	-35	-5

The listing continues:
Second line of a record – Mtb hypoxia rep	Bead autofluor	ugtP null kill	RN4220 kill	BJeLR lethal	PrP UTR inh	Mtb hypoxia rep growth
- CCC1(C(=O)c2ccc(C)cc2)C2c3ccccc3OC(=O)C21C(=O)O (stereo not given)
  14	5528	7	5.1	-5	-7	4
- O=C(NCCCn1ccnc1)C(=O)NCC1OCCN1S(=O)(=O)c1ccc(Cl)cc1 (stereo not given)
  -4	7148	-1	4.6	3	-37	-3
- O=C(Nc1ccc2oc(-c3cccnc3)nc2c1)c1ccco1
  13	3206	-11	-18	-14	-48	7
- Cc1ccc(OCC(=O)NCc2cccnc2)cc1
  11	4284	2	-1.4	-3	-8	1
- CCOc1ccccc1NC(=O)C(c1ccccc1)N1CCN(C(=O)c2ccco2)CC1 (stereo not given)
  4	6558	1	5.1	/	/	14
- COc1cc(NS(=O)(=O)c2ccc(NC(=O)COc3ccccc3C)cc2)nc(OC)n1
  -7	9935	-10	1.1	7	-16	1
- CN(C)S(=O)(=O)c1ccc(N2CCCC2)c(C(=O)Nc2ccc(N3CCOCC3)cc2)c1
  /	3159	5	2.6	5	-14	/
- FC(F)(F)c1cc(-c2ccc(Cl)cc2)nc(NCc2cccnc2)n1
  2	11375	-17	0.1	-10	/	4
- N#Cc1cccnc1Nc1cccc(Cl)c1
  7	2188	1	2.9	-3	-18	5
- O=C1CC[C@@]23CCCN2C(=O)CCCC3C1 (stereo not given in full)
  -2	2939	4	2.2	/	-1	-2
- Cc1ccc(CNC(=O)C(=O)NCCC2CCCCN2S(=O)(=O)c2cccs2)cc1 (stereo not given)
  9	4097	1	4.4	4	-10	-5
- O=C(O)C1CCCCC1C(=O)OCCCCOC(=O)C1CCCCC1C(=O)O (stereo not given)
  3	9907	-4	6.0	2	-12	7
- Cc1cnc(NC(=O)CSc2ncn(-c3ccccc3)n2)s1
  4	?	-6	9.8	5	-18	2
- COC(=O)C1CC2=C(CC(C)(C)CC2=O)N(c2ccccc2)C1=O (stereo not given)
  -5	3009	5	1.1	/	-13	-6
- COc1cccc(NC(=O)CC(=O)c2ccc([N+](=O)[O-])cc2)c1
  9	2750	-4	18	-5	-46	5

The list goes on:
Second line of a record – Mtb hypoxia rep	Bead autofluor	ugtP null kill	RN4220 kill	BJeLR lethal	PrP UTR inh	Mtb hypoxia rep growth
- O=C1c2ccccc2S(=O)(=O)c2cc(N3CCC(C(=O)N4CCCCC4)CC3)ccc21
  -2	/	5	5.2	4	/	14
- COc1ccccc1OCc1ccc(C(=O)N2N=C(C(F)F)CC2(O)C(F)F)o1 (stereo not given)
  -5	16851*	-3	6.4	16	-9	2
- CC(C)(C)OCC1CO1 (stereo not given)
  9	6051	9	4.5	/	-22	11
- O=C(NC(=S)Nc1ccc(CN2CCOCC2)cc1)c1cccc([N+](=O)[O-])c1
  6	9146	2	2.3	-1	-26	9
- CCOC(=O)CC1CCCCN1C(=O)CCCn1nnnc1CN1CCC(C)CC1 (stereo not given)
  -15	5996	1	2.1	1	-6	-11
- OC(COc1c(Cl)cc(Cl)cc1Cl)CN1CCCCC1 (stereo not given)
  3	8293	12	5.8	4	-25	-3
- C=CCOc1ccccc1CN1CCC(CO)(CCOc2ccccc2)CC1
  5	3179	4	3.8	5	-14	20
- Cc1cccc(-c2ccc3ncnc(NCc4cccnc4)c3c2)c1
  3	3743	-28	-14	/	-57	3
- COCCN1CCN(Cc2cn(C)nc2-c2cccc(Cl)c2)CC1
  0	4270	12	5.4	-3	-16	-9
- CCc1ccc(C2CC(c3ccco3)=NN2S(C)(=O)=O)cc1 (stereo not given)
  -1	5454	-8	1.2	11	-60	-1
- O=C(Nc1ccc2c(c1)C(=O)N(C1CCCCC1)C2=O)C1CCCO1 (stereo not given)
  9	2522	-5	1.2	-4	-11	9
- CSCCC(=O)N1CCCC(N2CCN(c3cccc(C(F)(F)F)c3)CC2)C1 (stereo not given)
  0	3847	15	5.7	5	-15	0
- CN1CCN(C(=O)c2ccc3c(c2)N(Cc2ccccc2F)C(=O)c2ccccc2S3=O)CC1 (stereo not given)
  3	6422	-1	3.2	0	-25	4
- Cc1nc2ccccc2n1CC(=O)c1ccc(O)c(O)c1
  15	2984	-13	10	/	0	5
- O=C(Nc1ccccc1)c1ccc(Br)c(S(=O)(=O)Nc2ccccn2)c1
  14	6197	-3	0.3	0	-16	2

More entries follow:
Second line of a record – Mtb hypoxia rep	Bead autofluor	ugtP null kill	RN4220 kill	BJeLR lethal	PrP UTR inh	Mtb hypoxia rep growth
- COc1ccc(C)cc1NS(=O)(=O)c1ccc2c(c1)oc(=O)n2C
  -4	3964	3	2.8	-1	-6	-8
- Cc1ccc(NC(=O)c2cc(-c3cccs3)on2)cc1
  -93	3274	-6	-1.9	-5	-19	-24
- CCn1c(SCC(=O)c2cccs2)nnc1-c1ccco1
  -5	4687	-3	5.5	2	-3	5
- COCCCNC(=S)NC1CC2CCCC(C1)N2Cc1ccco1 (stereo not given)
  -4	4606	7	2.2	-7	-36	-11
- COc1cccc(-n2nc(C(C)=O)c(C#N)c2-c2ccco2)c1
  /	2383	/	/	-8	2	/
- CS(=O)(=O)N(CC(N)=O)c1cccc(Br)c1
  16	2529	-2	-7.8	8	-15	12
- O=C(C1CCC(=O)N1Cc1cccnc1)N1CCN(c2ccc(F)cc2)CC1 (stereo not given)
  0	5784	2	4.9	-14	40	4
- COc1cccc(Cn2c(=S)[nH]c3ccc(N4CCOCC4)cc3c2=O)c1
  5	20640*	-6	0.0	-4	-27	4
- CCN(CC)S(=O)(=O)c1cccc(-c2nnc(SCC(=O)c3cc(C)n(C)c3C)o2)c1
  11	4688	1	0.1	1	-27	10
- CCCS(=O)(=O)NCCc1cc2c(OC)ccc(OC)c2[nH]c1=O
  /	2225	6	1.0	-3	-8	/
- CCC(=O)Nc1ccc(NC(=S)NC(=O)c2oc3ccccc3c2C)cc1
  9	2458	3	4.0	1	3	5
- CCOc1c(Cl)cc(CNc2ccc(S(N)(=O)=O)cc2)cc1OC
  8	1897	15	5.2	8	-9	4
- COc1cccc(OC)c1OCCCCN1CCCC1
  4	3359	5	3.8	5	4	9
- CCC(C(=O)NC1CCCC1)N(Cc1ccco1)C(=O)CNS(=O)(=O)c1ccccc1 (stereo not given)
  13	4870	2	4.2	-9	-13	9
- COc1nnc(OC)c2ccccc12
  10	5878	3	3.0	-17	-26	22

Additional records follow.
Second line of a record – Mtb hypoxia rep	Bead autofluor	ugtP null kill	RN4220 kill	BJeLR lethal	PrP UTR inh	Mtb hypoxia rep growth
- O=C1C=C(c2cccc(Br)c2)CC(c2ccc3c(c2)OCO3)C1 (stereo not given)
  23	/	15	11	/	/	8
- CC1CN(CC(=O)c2ccccc2Cl)CC(C)O1 (stereo not given)
  6	3159	9	3.7	0	-2	7
- Cc1ccccc1Nc1ccc2nonc2c1[N+](=O)[O-]
  6	4255	10	7.8	-4	-27	2
- FC(F)(F)c1cnc(N2CCN(C(=S)NCc3ccccc3)CC2)c(Cl)c1
  13	6083	46	-8.0	-11	-24	10
- CCCC(=O)Nc1ccc2oc(-c3cncc(Br)c3)nc2c1
  7	3722	7	1.9	10	/	11
- CCOC(=O)c1nnc(-c2ccccc2)nc1NCc1ccc(Cl)cc1
  6	10977	-32	2.3	7	-15	12
- CCOC(=O)c1cnc(SCC(=O)Nc2cccc(OC)c2)nc1N
  4	23962*	4	-1.5	-2	-4	5
- CN(C)c1ccc2c3c(ccc(N(C)C)c13)C(=O)OC2
  2	/	4	1.6	12	/	9
- Cc1cc(C(=O)Nc2ccc3c(c2)OCO3)no1
  6	7088	-1	1.3	-12	-68	7
